DUX4 txn inh = inhibitors of DUX4-driven ZSCAN4 reporter expression, primary screen, 293T cells, Gaussia and Italica luciferase | 293T-iDUX4 ZSCAN4-Gaussia luciferase reporter, 24 h; active compounds read low | actives 0.8% (n = 37,000) | activity change, negative = inhibition, % (no concentration beside the values);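 active = -10% or lower and over 25 points stronger than a control reporter; inconclusive = -10% or lower with a smaller gap; inactive = above -10%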;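 note: 0% = median of neutral control wells and -100% = median of positive control wells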
DUX4 txn inh difference = recorded beside DUX4 txn inh, whose call it bears; Gaussia minus Italica difference, %; measured here: selective DUX4 reporter inhibition;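 worked out from the two reporters; negative = selective loss of the DUX4 reporter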
DUX4 txn inh control = also measured in DUX4 txn inh; calls as there; activity change, negative = inhibition, %; measured here: Italica tet-on control reporter;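 0 = neutral control and -100 = positive control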
* marks the source's active call; other numbers are inactive results; u = inconclusive; x = no result given. An excerpt, so the mix of outcomes need not match the whole.

SMILES	DUX4 txn inh	DUX4 txn inh difference	DUX4 txn inh control
C[C@H]1CN([C@@H](C)CO)C(=O)c2c(c3ccccc3n2C)-c2ccccc2CO[C@@H]1CN(C)C(=O)C1CC1	u	x	x
COC(=O)[C@H]1[C@H](CO)[C@H]2Cn3c(ccc(-c4ccc(F)cc4)c3=O)[C@H]2N1C	8	1	7.0
COc1ccc2c3c([nH]c2c1)[C@@H](CO)N(C(=O)C1CCCCC1)CC31CCN(S(C)(=O)=O)CC1	12	7	5.5
O=C(Nc1cc(F)ccc1F)N1CC(=O)N2[C@H](C1)[C@H](c1ccc(-c3ccc(F)cc3)cc1)[C@@H]2CO	6	2	3.7
O=C(c1cccc(F)c1)N1C[C@H]2[C@@H](c3ccccc31)[C@@H](CO)N2C(=O)C1CCOCC1	2	0	1.8
CN(C[C@H]1N[C@H](CO)[C@@H]1c1ccc(-c2cccnc2)cc1)C(=O)NC1CCCC1	4	4	-0.3
CN1CCN(C(=O)C[C@H]2CC[C@@H]3[C@H](COC[C@H](O)CN3S(=O)(=O)c3cccc(F)c3)O2)CC1	3	2	1.0
CCC(=O)N1C[C@H](C)[C@H](OC)CN(C)C(=O)c2cc(NC(=O)Nc3ccc(Cl)cc3)ccc2OC[C@@H]1C	u	x	x
COCC(=O)N1[C@H](C#N)[C@H](c2ccccc2)[C@H]1CO	-1	-4	3.7
COc1ccccc1-c1ccc2n(c1=O)C[C@H]1[C@H](CO)[C@@H](C(=O)N3CCCCC3)[C@@H]2N1CC1CC1	9	4	4.8
COc1ccc2c3c([nH]c2c1)[C@@H](CO)N(Cc1ccncc1)CC31CN(CC2CCOCC2)C1	-9	-15	6.0
N#C[C@@H]1[C@@H](c2ccccc2)[C@@H](CO)N1C(=O)c1ccccc1F	-3	-2	-1.3
CCNC(=O)Nc1ccc2c(c1)C(=O)N(C)[C@@H]1CC[C@@H](CC(=O)NCC3CC3)O[C@H]1CO2	4	3	1.0
CO[C@H]1CC[C@H]2CCN(C)C(=O)[C@H](C)[C@H](OC)CN(C)C(=O)c3cccc(C#N)c3OC[C@@H]1O2	1	1	-0.1
CN(C)CC(=O)N[C@H]1CC[C@@H](CC(=O)NCCN2CCCCC2)O[C@H]1CO	2	0	1.7
O=C(C[C@H]1C=C[C@H](NC(=O)C2CCOCC2)[C@@H](CO)O1)Nc1ccc(-c2ccccc2)cc1	-1	-4	3.5
CCS(=O)(=O)Nc1ccc2c(c1)C(=O)N(C)C[C@@H](OC)[C@@H](C)CN(C(=O)C1CCC1)[C@H](C)CO2	3	3	-0.6
O=C(C[C@H]1CC[C@H]2[C@@H](COC[C@H](O)CN2CCC(F)(F)F)O1)NCC1CC1	-2	-5	2.9
CCCNC(=O)N1[C@@H]2c3ccc(-c4ccccc4OC)c(=O)n3C[C@H]1[C@H](CO)[C@H]2C(=O)NCC	16	10	6.1
CCCNC(=O)C[C@H]1CC[C@H]2[C@H](COc3ccc(NC(=O)NC(C)C)cc3C(=O)N2C)O1	10	20	-10
CO[C@H]1CN(C)C(=O)c2cc(NC(=O)Cc3ccccc3)ccc2OC[C@H](C)N(C)C[C@H]1C	0	2	-1.8
CN(C)CC(=O)Nc1ccc2c(c1)[C@@H]1C[C@@H](CC(=O)NCC3CC3)O[C@@H](CO)[C@@H]1O2	-1	1	-2.0
O=C(CC1CC1)N1CC2(C1)[C@@H](c1ccccc1)[C@H](CO)N2CC1CCOCC1	9	0	8.3
CC(C)CC#Cc1cnc2c(c1)C(=O)N([C@H](C)CO)C[C@H](C)[C@H](CN(C)C(=O)CC1CC1)O2	-3	-3	-0.1
COCC(=O)NC[C@@H]1[C@H](c2ccc(-c3ccccc3)cc2)[C@H](CO)N1C(C)=O	-4	-7	2.9
CO[C@H]1CC[C@H]2CCOc3ccc(C#N)cc3C(=O)N(C)CCCC(=O)N(C)C[C@@H]1O2	7	5	1.5
CC(=O)N1CCCCN2[C@@H](CO)[C@@H](c3ccc(-c4ccc(F)cc4)cc3)[C@@H]2C1	11	5	6.3
CNC(=O)C[C@H]1CC[C@@H]2[C@@H](COc3ccc(NC(=O)C4CC4)cc3C(=O)N2C)O1	-1	-3	2.1
COc1ccc2c3c(n(C)c2c1)[C@@H](CO)NCC31CCN(S(=O)(=O)c2ccc(C)cc2)CC1	-3	-7	4.2
COc1ccc2c3c(n(C)c2c1)[C@@H](CO)N(C(=O)c1ccccn1)CC31CCN(C(C)=O)CC1	2	8	-5.5
C[C@@H]1CCCCO[C@@H](CN(C)C(=O)Nc2cccc3ccccc23)[C@H](C)CN([C@@H](C)CO)C(=O)c2cc(N(C)C)ccc2O1	2	3	-0.8
CO[C@H]1CN(C)C(=O)c2cc(NC(=O)CC(F)(F)F)ccc2OC[C@H](C)N(C(C)=O)C[C@@H]1C	-3	-2	-0.6
CCC(=O)N1C[C@@H]2[C@H](c3ccccc31)[C@H](CO)N2C(=O)Nc1ccccc1F	5	3	1.8
COCC(=O)N1CCC2(CC1)CN(Cc1cc(F)ccc1F)[C@H](CO)c1c2c2ccc(OC)cc2n1C	u	x	x
COc1cccc(NC(=O)C[C@@H]2CC[C@H]3[C@@H](COc4ccc(NC(=O)c5ccccc5F)cc4C(=O)N3C)O2)c1	4	-4	8.5
CCC(=O)Nc1ccc2c(c1)C(=O)N(C)C[C@H](OC)[C@@H](C)CN(Cc1nccs1)[C@H](C)CO2	-5	-10	4.7
COC(=O)[C@H]1[C@H](CO)[C@H]2Cn3c(ccc(-c4cccnc4)c3=O)[C@H]2N1Cc1cccc(F)c1	0	0	0.3
O=C(Cc1ccccn1)N[C@@H]1CC[C@H](CCn2cc(-c3ccc(F)cc3)nn2)O[C@H]1CO	-9	-9	0.5
O=C([C@H]1[C@H](CO)[C@H]2Cn3c(cccc3=O)[C@@H]1N2CC1CCCC1)N1CCCCC1	0	-4	4.2
O=S(=O)(c1ccccc1F)N1CC[C@@H]2[C@H]1c1cc(-c3ccc(F)cc3)ccc1N[C@@H]2CO	10	-2	12
N#C[C@@H]1[C@H](c2ccccc2C2=CCCCC2)[C@H](CO)N1C(=O)CN1CCOCC1	2	-2	4.2
OC[C@H]1[C@H](c2ccc(Br)cc2)[C@H]2CN(Cc3cncnc3)CCCCN21	14	16	-2.0
O=C(Nc1cc(F)ccc1F)N1CC(=O)N2[C@H](CO)[C@@H](c3ccc(-c4ccc(F)cc4)cc3)[C@H]2C1	-1	4	-5.1
COc1cccc(NC(=O)N(C)C[C@@H]2Oc3ncc(C#Cc4cccnc4)cc3C(=O)N([C@@H](C)CO)C[C@H]2C)c1	-1	-2	0.9
C[C@@H]1CN([C@H](C)CO)C(=O)c2ccccc2-c2ccccc2CO[C@@H]1CN(C)C(=O)Nc1cccc(F)c1	u	x	x

By substructure: the compounds so far containing sulfur
SMILES	DUX4 txn inh	DUX4 txn inh difference	DUX4 txn inh control
COc1ccc2c3c([nH]c2c1)[C@@H](CO)N(C(=O)C1CCCCC1)CC31CCN(S(C)(=O)=O)CC1	12	7	5.5
CN1CCN(C(=O)C[C@H]2CC[C@@H]3[C@H](COC[C@H](O)CN3S(=O)(=O)c3cccc(F)c3)O2)CC1	3	2	1.0
CCS(=O)(=O)Nc1ccc2c(c1)C(=O)N(C)C[C@@H](OC)[C@@H](C)CN(C(=O)C1CCC1)[C@H](C)CO2	3	3	-0.6
COc1ccc2c3c(n(C)c2c1)[C@@H](CO)NCC31CCN(S(=O)(=O)c2ccc(C)cc2)CC1	-3	-7	4.2
CCC(=O)Nc1ccc2c(c1)C(=O)N(C)C[C@H](OC)[C@@H](C)CN(Cc1nccs1)[C@H](C)CO2	-5	-10	4.7
O=S(=O)(c1ccccc1F)N1CC[C@@H]2[C@H]1c1cc(-c3ccc(F)cc3)ccc1N[C@@H]2CO	10	-2	12

(listing goes on)
SMILES	DUX4 txn inh	DUX4 txn inh difference	DUX4 txn inh control
CC(C)NC(=O)Nc1ccc2c(c1)C(=O)N(C)[C@H]1CC[C@@H](CC(=O)NCc3ccc(F)cc3)O[C@@H]1CO2	-2	-2	-0.6
CCN(C[C@@H]1N[C@H](CO)[C@@H]1c1ccc(C2=CCCC2)cc1)C(=O)c1ccccc1	-6	-7	0.3
COc1cccc(CN(C)C[C@@H]2OCc3cn(nn3)CCCC(=O)N([C@@H](C)CO)C[C@H]2C)c1	-4	-9	5.1
C[C@H]1CN([C@@H](C)CO)C(=O)c2ccccc2-c2ccccc2CO[C@H]1CN(C)C(=O)Nc1cccc(F)c1	1	4	-2.8
COCC(=O)Nc1ccc2c(c1)OC[C@@H](C)N(C(=O)CC1CC1)C[C@H](C)[C@H](OC)CN(C)C2=O	-7	-8	0.2
CCC(=O)N1CC2(C1)CN(C(=O)Cc1ccccc1)[C@@H](CO)c1c2c2ccc(OC)cc2n1C	1	-4	5.1
CNC[C@H]1OCCCC[C@H](C)Oc2ccc(NS(=O)(=O)c3c(C)noc3C)cc2C(=O)N([C@H](C)CO)C[C@@H]1C	0	0	0.2
CN(C)C(=O)c1cc2c(c(-c3cccc(C4=CCCCC4)c3)n1)[C@H](CCO)N([S@@](=O)C(C)(C)C)C2	-2	-3	1.1
C[C@@H]1CN([C@H](C)CO)C(=O)c2ccccc2-c2ccccc2CO[C@@H]1CN(C)C(=O)c1ccc(F)cc1	16	11	4.5
CC(C)(O)C#Cc1ccc([C@@H]2[C@@H](CO)N3CCCCN(C(=O)c4ccncc4)C[C@H]23)cc1	8	0	8.2
OC[C@@H]1[C@@H](c2ccc(C#Cc3ccccc3)cc2)[C@@H]2CN(CC3CCOCC3)CCCCN12	u	x	x
C[C@H](C(=O)N(C)C[C@@H]1OCc2ccccc2-c2c(n(C)c3ccccc23)C(=O)N([C@H](C)CO)C[C@@H]1C)c1ccccc1	u	x	x
COCCNC(=O)C[C@H]1C[C@H]2c3cc(NS(C)(=O)=O)ccc3O[C@H]2[C@H](CO)O1	7	-2	8.8
CCCNC(=O)C[C@@H]1C[C@H]2c3cc(NS(=O)(=O)c4ccc(F)cc4)ccc3O[C@H]2[C@H](CO)O1	3	-1	4.5
C[C@@H]1CN([C@H](C)CO)C(=O)c2ccccc2-c2ccccc2CO[C@@H]1CN(C)Cc1ccc2c(c1)OCCN2C	-1	2	-2.1
CCCNC(=O)[C@@H]1[C@@H](CO)[C@@H]2Cn3c(ccc(-c4ccccc4)c3=O)[C@H]1N2C(=O)CC1CC1	1	4	-2.5
CN1CCCCN2[C@H](CO)[C@H](c3ccc(C#CC4(O)CCCC4)cc3)[C@@H]2C1	25	17	8.3
CO[C@H]1CN(C)C(=O)c2ccc(NC(=O)c3ccc(F)cc3)cc2OC[C@@H](C)N(C(=O)CN(C)C)C[C@H]1C	2	4	-1.2
Cc1noc(C)c1S(=O)(=O)Nc1ccc2c(c1)C(=O)N([C@H](C)CO)C[C@H](C)[C@H](CN(C)Cc1ccc(C(=O)O)cc1)OCCCC[C@H](C)O2	1	-1	2.1
C[C@@H]1CN([C@@H](C)CO)C(=O)CCCn2nncc2CO[C@@H]1CN(C)S(=O)(=O)c1ccc(Cl)cc1	-6	-7	1.0
COc1cccc(S(=O)(=O)N2CCCCN3[C@H](CO)[C@H](c4ccc(C5=CCCCC5)cc4)[C@H]3C2)c1	u	x	x
CCS(=O)(=O)N1[C@H](C#N)[C@H](c2ccc(-c3cccc(F)c3)cc2)[C@@H]1CO	-2	-4	2.6
C[C@@H]1CN([C@H](C)CO)C(=O)c2c(c3ccccc3n2C)-c2ccccc2CO[C@H]1CN(C)S(=O)(=O)c1cccc(F)c1	u	x	x
Cc1ccc(S(=O)(=O)N(C)C[C@@H]2Oc3c(NS(C)(=O)=O)cccc3C(=O)N([C@@H](C)CO)C[C@@H]2C)cc1	-1	0	-1.3
O=C(C[C@@H]1C=C[C@H](NS(=O)(=O)c2ccc(F)cc2)[C@H](CO)O1)N1CCc2ccccc2C1	-1	-2	1.2
Cc1noc(C)c1NC(=O)N(C)C[C@H]1OCc2cnnn2CCCC(=O)N([C@H](C)CO)C[C@H]1C	2	3	-0.3
COc1ccc2c3c([nH]c2c1)[C@@H](CO)N(S(C)(=O)=O)CC31CCN(Cc2nccs2)CC1	9	1	8.6
CCCN(C)C[C@@H]1Oc2ncc(C#CCN(C)C)cc2C(=O)N([C@H](C)CO)C[C@@H]1C	1	-3	3.4
C[C@H](CO)N1C[C@H](C)[C@H](CN(C)Cc2ccc(C(=O)Nc3ccccc3N)cc2)Oc2c(NC(=O)Nc3ccc4c(c3)OCO4)cccc2C1=O	1	3	-2.1
C/C=C/c1cnc2c(c1)C(=O)N([C@@H](C)CO)C[C@@H](C)[C@@H](CN(C)S(=O)(=O)c1cn(C)cn1)O2	-2	-2	0.2
N#C[C@@H]1[C@H](c2ccccc2C2=CCCC2)[C@@H](CO)N1C(=O)C1CCC1	4	-6	11

Complete entries, looked up by structure.
COc1ccc2c3c([nH]c2c1)[C@@H](CO)N(S(C)(=O)=O)CC31CCN(Cc2nccs2)CC1 is entered as DUX4 txn inh: 9; DUX4 txn inh difference: 1; DUX4 txn inh control: 8.6
N#C[C@@H]1[C@H](c2ccccc2C2=CCCC2)[C@@H](CO)N1C(=O)C1CCC1 is entered as DUX4 txn inh: 4; DUX4 txn inh difference: -6; DUX4 txn inh control: 11
CN1CCCCN2[C@H](CO)[C@H](c3ccc(C#CC4(O)CCCC4)cc3)[C@@H]2C1 is entered as DUX4 txn inh: 25; DUX4 txn inh difference: 17; DUX4 txn inh control: 8.3

Single values from the entries so far.
In DUX4 txn inh difference, O=C(C[C@@H]1C=C[C@H](NS(=O)(=O)c2ccc(F)cc2)[C@H](CO)O1)N1CCc2ccccc2C1 is listed with -2
In DUX4 txn inh, Cc1ccc(S(=O)(=O)N(C)C[C@@H]2Oc3c(NS(C)(=O)=O)cccc3C(=O)N([C@@H](C)CO)C[C@@H]2C)cc1 is listed with -1
In DUX4 txn inh control, CCS(=O)(=O)N1[C@H](C#N)[C@H](c2ccc(-c3cccc(F)c3)cc2)[C@@H]1CO is listed with 2.6

Assay outcomes from PubChem.
